# Screens as filed in PubChem BioAssay.
# Sa growth inh – S. aureus growth inhibition at 42 and 30 °C, primary screen, LtaS inhibitor project, RN4220, two temperatures; OD600, 20 h, 42 °C; active compounds read low; relative growth, % (concentration not given with the values); hit rate 0.53% among 170,000; AID 720641, 2013;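 active = growth at 42 °C up to 50% and 20 or more points under that at 30 °C, or under 10% at both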;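 note: 300 nL library stock went into each well; scaled to the means of positive and negative controls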
# HCMV UL50-53 inh – inhibitors of HCMV UL50-UL53 interaction, biochemical, HTRF | HCMV UL50-UL53 nuclear egress complex (human cytomegalovirus) | normalized percent inhibition | inhibition, % (concentration not given with the values) | hit rate 0.15% among 190,000 | AID 1918969, 2023;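 active = both replicates at 50% or more, plus weaker picks with an unusually low signal ratio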;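 note: stock transfer was 100 nL into about 20 µL; 0% = negative control wells and 100% = wells with untagged competitor protein; inactives centre near -12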
# GIV Gai3 FP – inhibitors of GIV peptide binding to Galpha-i3, primary screen, biochemical, fluorescence polarization, FITC-GIV GBA peptide, rat Galphai3; Guanine nucleotide-binding protein G(i) subunit alpha-3 (Rattus norvegicus), P08753; 90 min; active compounds read low; scaled: aluminum fluoride 0%, vehicle 100%; percent of control (FP), % (test concentration not listed); hit rate 0.42% among 210,000;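 active = replicate mean at 85% of control or lower, very high polarization wells dropped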;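 note: lower values mean more displacement of the GIV peptide from Galpha-i3; wells of about 15 µL received 100 nL stock; the first replicate is given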
# Target sequence (P08753 whole entry, looked up): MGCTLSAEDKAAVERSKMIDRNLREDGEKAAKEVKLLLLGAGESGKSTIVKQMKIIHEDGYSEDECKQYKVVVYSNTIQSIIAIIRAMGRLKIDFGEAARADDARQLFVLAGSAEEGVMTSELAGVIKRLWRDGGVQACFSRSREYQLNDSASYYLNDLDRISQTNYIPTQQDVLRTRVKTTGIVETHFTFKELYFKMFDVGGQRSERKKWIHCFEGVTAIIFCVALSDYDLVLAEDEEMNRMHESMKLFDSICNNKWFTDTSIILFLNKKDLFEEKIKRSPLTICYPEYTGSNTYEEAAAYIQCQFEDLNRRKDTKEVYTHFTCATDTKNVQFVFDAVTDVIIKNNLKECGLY
# Sa growth inh second temp – second read-out of Sa growth inh, no call of its own (marks repeat the call); relative growth, %; measured here: growth at 30 °C;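 optical density after 20 h as mean of two plates; 100% = untreated growth and lower means inhibition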
# Starred values were filed as active, the others as inactive; . = not tested or not shown; & = joins results of further samples.
cpd	SMILES	Sa growth inh	Sa growth inh second temp	HCMV UL50-53 inh	GIV Gai3 FP
1	O=C(Nc1ccc(Cl)cc1)C1CCN(S(=O)(=O)c2ccc(Br)s2)CC1	104	85	52	99
2	CC1CCC(N(C)C(=O)COC(=O)c2ccc(-n3cncn3)cc2)CC1 (stereo not given)	124	89	4	.
3	O=C(O)/C(=C/c1ccc(F)cc1)c1cccs1	93	97	-23	.
4	OCCNCc1ccc(-c2cccc(C(F)(F)F)c2)o1	.	.	-10	101
5	COc1ccc(C(=O)NCc2nnc(SCC(=O)Nc3ccc(F)cc3)n2-c2ccccc2)cc1	106	106	20	105
6	Cc1cc(C)n(C(=O)Cc2cccs2)n1	117	94	0	.
7	CCOC(=O)c1cccc(NC(=O)c2ccc3nc(C(C)C)oc3c2)c1	88	75	.	100
8	CCN1CCN(C(c2ccccc2F)c2c(O)cc(C)n(CCOC)c2=O)CC1 (stereo not given)	74	88	.	101
9	Cc1nn(-c2cccc(Cl)c2)nc1C(=O)NC1CCCCCC1	96	90	-6	.
10	O=C(O)C(O)c1ccc(F)cc1 (stereo not given)	58	89	-27	.
11	COc1ccc(NS(=O)(=O)c2cc(-c3ccno3)oc2C)cc1	.	.	-7	113
12	N#C/C(=C(\OCc1nnc(-c2ccccc2)o1)C(F)(F)F)c1nnc2n1CCCCC2	96	92	-26	.
13	O=C(Oc1c(Br)cc(Br)c2cccnc12)N1CCOCC1	78	58	.	99
14	CCCNC(=O)Cc1c(C)nc2cc(-c3ccccc3)nn2c1C	119	87	.	102
15	O=C(Nc1ccc(Cl)cc1)OCc1cn(-c2ccccc2)nn1	.	.	3	110
16	O=C(NCc1ccncc1)c1ccc(Oc2cc(Cl)cc(Cl)c2)o1	96	79	-11	103
17	CC1CCN(C(=O)c2cccc3c2SCCC3=O)CC1	112	80	.	100
18	CC(C)C1OC(c2cccc(NC(=O)c3ccc(F)cc3)c2)OCC1(C)C (stereo not given)	83	87	-9	.
19	O=C(Cc1cccs1)Nc1ccccc1	104	92	-27	99
20	COc1ccc(CCN2COc3cc4c(cc3C2)OCO4)cc1	104	87	-52	102
21	c1ccc(OCCSc2nnc3c4ccccc4nc(-c4ccccc4)n23)cc1	113	83	-10	.
22	Cc1csc2sc(-c3ccn[nH]3)c(C)c12	36	29	-10	104
23	Cc1ccc(-c2nn3c(-c4cccnc4)nnc3s2)cc1C	.	.	-10	104
24	COC(=O)c1sccc1NC(=O)c1cc2c([nH]c1=O)CC(C)(C)CC2=O	.	.	7	109
25	CCOC(=O)c1nc(NCCOC)c2c(CC)noc2n1	.	.	-15	108
26	O=C1c2sc3nc4ccccc4n3c2C(=O)N1c1cc(Cl)ccc1Cl	92	80	-34	95
27	COc1ccc(Cc2nnc(-c3ccc(C)cc3)o2)cc1OC	96	79	.	105
28	CC(=O)N(C(C)=O)c1ccc2nc(C)[nH]c(=O)c2c1	104	103	0	101
29	CC(NC(=O)c1cc(Sc2ccc(F)cc2F)nc2ccccc12)c1ccccc1 (stereo not given)	112	80	.	97
30	COc1ccccc1/C=C/C=N/n1c(C)nnc1C	65	95	-29	.
31	Cc1ccc(C)c(NC(=O)c2cc(C)nn2-c2ccccc2)c1	104	98	.	102
32	COc1cc(OC)c(NC(=O)n2ncc3cc(Cl)ccc32)cc1Cl	98	97	0	96
33	COc1ccc(-n2nc(C(=O)Nc3ccc(Cl)cn3)c3c4ccccc4n(C)c3c2=O)cc1	106	90	-8	104
34	COc1cccc(Nc2nc3cc(Cl)c(Cl)cc3nc2-n2nc(C)cc2C)c1	96	89	-8	104
35	O=C(OCC(=O)N1CCCC1)c1ccc(-c2ccc(C(=O)OCC(=O)N3CCCC3)s2)s1	89	100	-2	.
36	Cc1ccc(-c2csc(NC(=O)CCNC(=O)c3ccco3)n2)cc1	70	91	-10	.
37	O=C(O)CC(c1ccccc1)c1ccco1 (stereo not given)	99	79	-13	100
38	CCCn1c(=O)c(C)cn2nc(N)nc12	.	.	-13&-18	103
39	Cn1c(=O)n(C)c2cc(SC3CCCCC3)c(NC(=O)COc3ccc(Cl)cc3)cc21	.	.	-36	108
40	COc1ccc(CSc2nc3ncccc3o2)cc1	.	.	-25	103
41	O=C(CSCc1nc2cccnc2n1C1CCCCC1)NCc1ccc(F)cc1	.	.	-18	105
42	C[n+]1cc2c3c(ccc2c2ccc4cc5c(cc4c21)OCO5)OCO3	12	0	-26&-34&-30	105
43	O=C(NCc1ccco1)c1ccccc1NS(=O)(=O)c1ccc(F)cc1	125	86	-7	104
44	O=C(NCC1CCN(Cc2cccc(Cl)c2)CC1)Nc1ccc2c(c1)OCCO2	84	74	-18	100
45	COc1cc(NC(=O)c2nn3c(c2Cl)NC(c2cccs2)CC3C(F)(F)F)cc([N+](=O)[O-])c1 (stereo not given)	.	.	-18	91
46	CCc1cccc(C)c1NC(=O)CSc1nc2ccccc2nc1Cc1ccccc1	96	94	.	102
47	CC(=O)N1CCc2cc(NC(=O)Nc3cccc(Cl)c3)ccc21	85	89	-7	101
48	CC(N=Cc1c(O)[nH]c2ccccc12)c1ccccc1 (stereo not given)	83	49	-77	103
49	CC(C)c1nnc2c(SCC(=O)NC3CCCC3)nc3ccccc3n12	.	.	-48	113
50	O=C(c1ccc(CS(=O)(=O)c2ccc(Br)cc2)o1)N1CCN(c2ccc(F)cc2)CC1	95	100	6	102
51	O=C(CCCn1sc2ccccc2c1=O)N1CCCC1	78	92	.	96
52	COc1ccc(-c2cc(=Nc3ccc(O)cc3)c3cc(C)ccc3o2)cc1	100	26	.	103
53	O=c1c(Cl)c(Cl)cnn1-c1ccccc1	97	89	-77&-106	87&86
54	CC(C)NC(=O)Nc1cccc(-c2noc(-c3ccc4c(c3)OCO4)n2)c1	.	.	-6	106
55	O=C1C2C3c4ccccc4C(c4ccccc43)C2C(=O)N1Cc1ccccn1 (stereo not given)	115	94	-4	108
56	CC(=O)Nc1cccc(C(=O)OCc2ccccc2)c1	111	93	-5	101
57	CCOc1ccc2oc(=O)cc(CN3CCN(Cc4ccc(C)cc4)CC3)c2c1	114	75	-2	105
58	CC(C)CN1CCOC(CNC(=O)NC2CCCCC2)C1 (stereo not given)	81	92	-15	.
59	CCCCn1c2nc3ccccc3nc2c2c(N)ncnc21	100	84	.	107
60	COc1ccc(/C=C/C(=O)Nc2ccc3nc(N4CCC(C)CC4)cc(C)c3c2)cc1	95	91	-8	93

# Further compounds.
cpd	SMILES	Sa growth inh	Sa growth inh second temp	HCMV UL50-53 inh	GIV Gai3 FP
61	CCc1ccc(NC(=O)C(C)OC(=O)/C=C/c2ccco2)cc1 (stereo not given)	100	96	-26	.
62	CN(Cc1cccs1)C(=O)c1nc(-c2ccccc2)n(-c2ccccc2)n1	99	90	-35	.
63	Cc1cc(C(=O)NC(C)C)on1	77	88	0	103
64	COc1ccc(Cl)cc1NC(=O)Cc1c(C)[nH]n(-c2nc(C)cs2)c1=O	.	.	-11	98
65	CCN(C(=O)CCNC(=O)Cn1cnc2ccccc2c1=O)c1cccc(Cl)c1	93	90	-21	109
66	CN1CCCN(c2ccc(NC(=O)c3ccccc3Cl)c(C(=O)O)c2)CC1	.	.	-4	98
67	CCC(C)[C@@H](C(=O)Nc1ccc(C)cc1)N1Cc2ccccc2C1=O (stereo not given in full)	92	70	-21	107
68	CCCn1c(=NC(=O)C(C)(C)C)sc2c(OC)ccc(OC)c21	96	86	-20	97
69	N#Cc1cc(Sc2ccc(Cl)cc2)c(-n2nnc3ccccc32)cc1C#N	131	91	-14	102
70	CCCOC(=O)c1c(-c2ccccc2)c(-c2ccccc2)nn(C)c1=O	90	85	-19	103
71	COc1cc(NC(=O)c2ccc(-n3cnc4cccnc43)cc2)cc(OC)c1	129	89	.	105
72	CCc1ccc(NCc2cc3cc4c(cc3n(CC(=O)Nc3ccccc3OC)c2=O)OCCO4)cc1	83	85	.	101
73	COc1ccc(/C=C2/SC(N3CCN(C(=O)CN4C(=O)S/C(=C\c5ccccc5F)C4=O)CC3)=NC2=O)cc1	.	.	-19	106
74	Cc1ccc(NC(=O)C(c2ccccc2)N2Cc3ccccc3C2=O)cc1Cl (stereo not given)	114	97	.	109
75	COC(=O)c1cc(S(=O)(=O)NCCC(=O)NC2CCCCC2)cn1C	.	.	-4	102
76	CS(=O)(=O)N1CCCC(C(=O)Nc2ccccc2)C1 (stereo not given)	104	99	-6	98
77	CCc1ccccc1NC(=O)C(=O)NCCc1sc(-c2cccc(F)c2)nc1C	93	91	.	108
78	COc1ccc(NC(=O)c2cc(S(=O)(=O)N3CCCCCC3)cn2C)cc1Cl	95	86	.	98
79	CC(C)c1nc2ccccc2c(=O)[nH]1	71	91	-3	97
80	Cc1c(-c2nc3ncc(Br)cc3[nH]2)cc(C#N)n1C	104	80	-3	.

# For convenience, some entries already given.
cpd	SMILES	Sa growth inh	Sa growth inh second temp	HCMV UL50-53 inh	GIV Gai3 FP
1	O=C(Nc1ccc(Cl)cc1)C1CCN(S(=O)(=O)c2ccc(Br)s2)CC1	104	85	52	99
2	CC1CCC(N(C)C(=O)COC(=O)c2ccc(-n3cncn3)cc2)CC1 (stereo not given)	124	89	4	.
3	O=C(O)/C(=C/c1ccc(F)cc1)c1cccs1	93	97	-23	.
4	OCCNCc1ccc(-c2cccc(C(F)(F)F)c2)o1	.	.	-10	101
5	COc1ccc(C(=O)NCc2nnc(SCC(=O)Nc3ccc(F)cc3)n2-c2ccccc2)cc1	106	106	20	105
6	Cc1cc(C)n(C(=O)Cc2cccs2)n1	117	94	0	.
7	CCOC(=O)c1cccc(NC(=O)c2ccc3nc(C(C)C)oc3c2)c1	88	75	.	100
8	CCN1CCN(C(c2ccccc2F)c2c(O)cc(C)n(CCOC)c2=O)CC1 (stereo not given)	74	88	.	101
9	Cc1nn(-c2cccc(Cl)c2)nc1C(=O)NC1CCCCCC1	96	90	-6	.
10	O=C(O)C(O)c1ccc(F)cc1 (stereo not given)	58	89	-27	.
11	COc1ccc(NS(=O)(=O)c2cc(-c3ccno3)oc2C)cc1	.	.	-7	113
12	N#C/C(=C(\OCc1nnc(-c2ccccc2)o1)C(F)(F)F)c1nnc2n1CCCCC2	96	92	-26	.
13	O=C(Oc1c(Br)cc(Br)c2cccnc12)N1CCOCC1	78	58	.	99
14	CCCNC(=O)Cc1c(C)nc2cc(-c3ccccc3)nn2c1C	119	87	.	102
15	O=C(Nc1ccc(Cl)cc1)OCc1cn(-c2ccccc2)nn1	.	.	3	110
16	O=C(NCc1ccncc1)c1ccc(Oc2cc(Cl)cc(Cl)c2)o1	96	79	-11	103
17	CC1CCN(C(=O)c2cccc3c2SCCC3=O)CC1	112	80	.	100

# (next part)
cpd	SMILES	Sa growth inh	Sa growth inh second temp	HCMV UL50-53 inh	GIV Gai3 FP
81	Cc1ccc(S(=O)(=O)N2CCC(C)CC2)cc1C(N)=O	76	90	-5	101
82	COc1ccc(CNC(=O)c2cccs2)cc1OC	93	80	.	100
83	COC(=O)c1ccc(CSc2nc3ccncc3[nH]2)cc1	103	93	.	105
84	CCOc1ccccc1CNC(=O)c1ccc2nc(Cc3ccc(OC)cc3)oc2c1	113	91	.	99
85	COc1ccc(C(=O)N2CCN(c3ncnc4c3nnn4-c3ccc(F)cc3)CC2)cc1OC	102	102	3	110
86	CCOc1ccc(Nc2nc(C)c(NC(=O)c3cccc(OC)c3)c(Nc3ccc(OCC)cc3)n2)cc1	109	96	5&-14	100&101
87	COc1ccc(C)cc1NC(=O)Nc1cc(C(=O)NCc2ccc(C)cc2)ccc1N1CCCC1	93	91	.	102
88	CCN(C#N)c1nc(OC)nc(N2CCOCC2)n1	99	103	-3	100
89	NNC(=O)c1cc(NS(=O)(=O)c2cccs2)cc(NS(=O)(=O)c2cccs2)c1	82	81	-13	.
90	C/C(N)=N/C(=S)Nc1ccc(Cl)cc1	76	71	-9	103
91	O=S(=O)(c1ccc(Cl)c(Cl)c1)N1CCCCC1	108	98	-34	103
92	COc1ccc(Cl)cc1NC(=O)Cn1c2ncccc2c(=O)n1-c1ccc(C)c(C)c1	95	91	.	106
93	CCOC(=O)c1sc(NC(=O)c2cc(-c3ccc(OC)c(OC)c3)nc3ccccc23)nc1C	.	.	-9	102
94	CSc1ccc(S(=O)(=O)N2CCC(C(N)=O)CC2)cc1	101	73	-8	100
95	COc1ccc(NC(=O)C2CCN(c3nc(-c4ccc(OC)cc4)no3)CC2)cc1	123	95	-2	104
96	CCOc1nc(NC(=O)NS(=O)(=O)Oc2cccc(F)c2)nc(-c2ccccc2)n1	116	87	-10	110
97	CCN1CCc2c(sc(-n3cccc3)c2C(C)NC(=O)Nc2ccc(Br)c(C)c2)C1 (stereo not given)	107	91	-25	110
98	CCn1c(=N)c(C(=O)NCc2ccccc2)cc2c(=O)n3cccc(C)c3nc21	107	85	-53	108
99	Cc1ccc(COc2ccc(Br)cc2C=C2C(=O)NC(=S)NC2=O)cc1	.	.	8	100
